KCNQ2 pot: KCNQ2 (rat) channel potentiation; B-score at 10 µM; O88943; CHO-K1 KCNQ2, FluxOR thallium flux fluorescence; hits give high values; hit rate 0.54% among 310,000;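 active = fluorescence ratio B-score at least 3 SD of library B-scores, with initial fluorescence B-score within 3 SD, cut at about 5.3 in these data; same plate scores as AID 2156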;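 note: B-score of peak minus minimum over baseline fluorescence ratio after K+ and Tl+ stimulus; positive B-score means potentiation of KCNQ2 with more thallium influx and brighter signal; only the inactives scoring about 0 or higher are listed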
Target sequence (O88943 whole entry, looked up): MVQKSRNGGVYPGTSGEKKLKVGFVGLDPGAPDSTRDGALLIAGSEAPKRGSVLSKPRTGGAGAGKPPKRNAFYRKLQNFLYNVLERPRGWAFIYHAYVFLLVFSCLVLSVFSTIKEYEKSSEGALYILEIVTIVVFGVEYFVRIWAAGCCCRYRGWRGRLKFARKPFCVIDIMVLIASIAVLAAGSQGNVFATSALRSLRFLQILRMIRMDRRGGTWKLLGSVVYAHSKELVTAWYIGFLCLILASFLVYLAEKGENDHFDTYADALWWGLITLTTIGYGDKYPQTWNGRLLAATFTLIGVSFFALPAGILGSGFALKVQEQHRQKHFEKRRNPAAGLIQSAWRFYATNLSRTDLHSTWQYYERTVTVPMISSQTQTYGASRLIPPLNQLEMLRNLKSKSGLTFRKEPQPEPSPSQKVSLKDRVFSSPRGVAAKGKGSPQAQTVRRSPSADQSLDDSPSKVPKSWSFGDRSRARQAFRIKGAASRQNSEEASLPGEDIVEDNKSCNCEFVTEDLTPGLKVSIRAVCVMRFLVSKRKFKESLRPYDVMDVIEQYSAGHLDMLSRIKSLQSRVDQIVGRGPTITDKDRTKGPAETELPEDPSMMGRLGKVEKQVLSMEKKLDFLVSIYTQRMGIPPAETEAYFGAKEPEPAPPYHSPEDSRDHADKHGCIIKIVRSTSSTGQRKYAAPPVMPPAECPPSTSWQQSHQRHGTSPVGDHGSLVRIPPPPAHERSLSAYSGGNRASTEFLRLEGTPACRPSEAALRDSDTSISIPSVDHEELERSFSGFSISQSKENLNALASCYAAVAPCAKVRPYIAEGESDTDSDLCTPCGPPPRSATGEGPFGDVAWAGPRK
KCNQ2 pot baseline: further read-out of KCNQ2 pot, marked with its call; B-score; compound at 10 µM; measured here: initial fluorescence intensity artifact check;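 brightness before thallium and not channel activity; 0 = typical well and far values either way flag optical interference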
* = called active by the depositor; & = joins results of further samples. This is a subset; count on the stated rates, not on these rows.

SMILES	KCNQ2 pot	KCNQ2 pot baseline
COc1ccc(C(=O)COc2ccc3ccc(=O)oc3c2)c(OC)c1	2.3	-0.91
COc1cccc(C2N(c3ccc(Cl)c(Cl)c3)C(=O)C3CCCN32)c1OC (stereo not drawn)	5.1	0.88
O=C(NNC1CC(=O)N(c2ccc3c(c2)OCCO3)C1=O)c1ccccc1 (stereo not drawn)	0.04	1.1
CCOc1ccc(/C=N/Nc2ccc(Cl)nn2)c(O)c1	2.3	-1
CC(C)N(C(=O)CSc1nnc(-c2ccc3c(c2)OCO3)n1C)C(C)C	0.3	1.3
Cc1cc(Nc2ccccc2)n2nc(C)c(-c3ccccc3)c2n1	1.4	-0.76
O=C(NCCCN1CCOCC1)c1cc2cc(Br)ccc2oc1=O	1.2	0.03
Cc1ccc(-c2nc3ccccc3s2)cc1NC(=O)c1cc(-n2cnnc2)ccc1Cl	2.1	0.47
CCc1ccc(N2CC(C(=O)Nc3ccc(F)cc3)CC2=O)cc1 (stereo not drawn)	0.56	-0.03
CCOC(=O)C1CCN(S(=O)(=O)CCNC(=O)c2cccc(OC)c2)CC1	0.24	-1.3

Some values from above.
KCNQ2 pot baseline with `O=C(NNC1CC(=O)N(c2ccc3c(c2)OCCO3)C1=O)c1ccccc1` (stereo not drawn) = 1.1
KCNQ2 pot baseline with `COc1ccc(C(=O)COc2ccc3ccc(=O)oc3c2)c(OC)c1` = -0.91
KCNQ2 pot baseline with `O=C(NCCCN1CCOCC1)c1cc2cc(Br)ccc2oc1=O` = 0.03
KCNQ2 pot baseline with `Cc1ccc(-c2nc3ccccc3s2)cc1NC(=O)c1cc(-n2cnnc2)ccc1Cl` = 0.47

The list continues.
SMILES	KCNQ2 pot	KCNQ2 pot baseline
N/C(=N\O)c1cccc(CS(=O)(=O)c2ccccn2)c1	0.25	0.67
CCOc1ccc(-c2nnc(SCC(=O)N3CCCC3)o2)cc1	0.67	0.39
CC(=O)Nc1ccc(S(=O)(=O)NCc2ccc(C(=O)NCc3ccc4c(c3)OCO4)cc2)cc1	0.28	0.01
COc1ccc(-c2noc(-c3ccoc3C)n2)cc1OC	0.8	-0.02
CCn1c(SCC(=O)N2CCCc3ccccc32)nc2ccccc2c1=O	0.19	0.65
CCOC(=O)c1nnn(-c2nonc2N)c1-c1ccc(OCC)cc1	0.13	-0.7
Cc1cc(C)n(-c2nc3ccccc3n3c(C)nnc23)n1	1.1	-0.01
COc1cc(/C(C)=N/NC(=O)CSc2nc3ccccc3[nH]2)ccc1O	1.8	-1.8
Cc1ccsc1/C=N\NC(=O)c1n[nH]c2c1CCC2	0.94	-0.08
Cc1ccccc1/C=N\NC(=O)c1csnn1	1.1	-0.38

In the list so far, five have an aryl methoxy group.
SMILES	KCNQ2 pot	KCNQ2 pot baseline
COc1ccc(C(=O)COc2ccc3ccc(=O)oc3c2)c(OC)c1	2.3	-0.91
COc1cccc(C2N(c3ccc(Cl)c(Cl)c3)C(=O)C3CCCN32)c1OC (stereo not drawn)	5.1	0.88
CCOC(=O)C1CCN(S(=O)(=O)CCNC(=O)c2cccc(OC)c2)CC1	0.24	-1.3
COc1ccc(-c2noc(-c3ccoc3C)n2)cc1OC	0.8	-0.02
COc1cc(/C(C)=N/NC(=O)CSc2nc3ccccc3[nH]2)ccc1O	1.8	-1.8

Further entries.
SMILES	KCNQ2 pot	KCNQ2 pot baseline
O=C1/C(=C\c2ccccn2)SC(=S)N1c1ccc(S(=O)(=O)Nc2nccs2)cc1	0.67	0
Cc1ccc(C(=O)NCC(=O)OCC(=O)NC2CCS(=O)(=O)C2)cc1C (stereo not drawn)	1.3	-1
O=C(O)C1CCC(=O)N1C1c2ccccc2Oc2ccccc21 (stereo not drawn)	0.69	0.93
Cc1ccc(C(=O)NC2CCCC2)s1	0.76	0.18
O=c1c2ccccc2oc2cc(C#Cc3ccccn3)ccc12	1.4	-1.2
CSc1ccc(S(=O)(=O)Nc2cccc(F)c2)cc1	1.2	1.3
Cc1cccc(C(=O)NCC(=O)NCCSc2ccc(Br)cc2)c1	0.4	0.85
COc1ccc(C)cc1NC(=O)CNC(=O)Cn1ccc2ccccc2c1=O	0.6	-2.2
COCCC(=O)N1CCCC(C(=O)c2ccccc2SC)C1 (stereo not drawn)	1.7	-0.41
Oc1ccccc1/C=N/NC(=S)NC1CC2C=CC1C2 (stereo not drawn)	1.4	-0.79
O=P(COc1ccccc1)(c1ccccc1)c1ccccc1	0.06	0.01
OC(CNCc1ccc2c(c1)OCO2)COc1ccccc1 (stereo not drawn)	0.79	0
CC(CN1CCOCC1)C(=O)O (stereo not drawn)	0.41	-0.47
Cc1ccc(CCNC(=O)C2CCC(=O)N(CC3CCCCC3)C2)cc1 (stereo not drawn)	0.77	0.38
COc1ccc(C(=O)Nc2ccc([N+](=O)[O-])cn2)c(OC)c1	1.2	-0.52
CCOc1ccc(NC(=O)CS(=O)(=O)c2cn(C)c3ccccc23)cc1	1.1	1
CN(Cc1nc(-c2ccncc2)no1)S(=O)(=O)c1ccccc1	2.1	-1.6
O=C1NC2(CCCCCC2)C(=O)N1Cc1ccccc1Cl	0.04	-0.19
O=C1CC(NS(=O)(=O)c2ccc([N+](=O)[O-])cc2)CN1c1ccc(Cl)cc1 (stereo not drawn)	0.01	1.2
CCC(=O)Oc1ccc(C(=O)Nc2cccc(C(=O)c3ccccc3)c2)cc1	0.81	1.6
CCc1noc(C)c1C(=O)N1CCCC(N2CCN(c3cccc(Cl)c3)CC2)C1 (stereo not drawn)	0.6	0
Cc1c(NC(=O)Nc2cccc(Cl)c2Cl)c(=O)n(-c2ccccc2)n1C	0.3	-0.04
CN1CCN(C(=O)NC2CCCCC2)CC1	1.9	1.9
Fc1ccc(-c2csc3ncnc(Cl)c23)cc1	2.6	0.82
COCCN(C(=O)Cc1cccs1)C(C(=O)NC1CCCC1)c1cc(OC)c(OC)c(OC)c1 (stereo not drawn)	0.11	-0.9
O=C(OCC(=O)N1CCN(c2ccccc2)CC1)c1ccco1	1.2	1.7
CCOC(=O)C1(CC2CCCCO2)CCN(Cc2c(C)cc(C)cc2-n2cccn2)CC1 (stereo not drawn)	1.6	-0.84
Cc1ccc2[nH]c3c(=O)n(CC(=O)N4CC(C)CC(C)C4)ncc3c2c1 (stereo not drawn)	1.1	-1.4
CCOC(=O)c1c(NC(=O)c2ccccc2C(=O)O)sc2c1CCCC2	0.99	0.39
C=C(C)c1cccc(C(C)(C)NC(=O)Nn2cnnc2)c1	0.52	-1.2
CN1CCN(C(=O)c2ccccc2N(Cc2ccccc2)S(=O)(=O)c2ccccc2)CC1	1.5	-0.73
Cc1ccc(NS(=O)(=O)c2cc(C(N)=O)ccc2C)cc1	0.06	0.08
Cc1[nH]nc(N=Cc2c(O)n(C)c(=O)n(C)c2=O)c1-c1ccccc1	0.71	-2.5
CCOC(=O)C1=NOC(CNC(=O)c2ccccc2Cl)C1 (stereo not drawn)	0.51	0.76
CCOC(=O)C1(Cc2cccc(OC)c2)CCN(Cc2ccccc2OC)CC1	1	-1.4
Cc1cc2c3c(ccc(C)c3n1)N=CN2c1ccccc1	1.7	-1.5
CSCC[C@H](NC(=O)[C@@H]1CSC2c3ccccc3C(=O)N21)C(=O)NCc1ccco1 (stereo partly drawn)	1.1	-0.01
CCOc1ccc(NC(=S)N(CCOC)C(C)c2cccnc2)cc1 (stereo not drawn)	0.95	-0.02
CCC1C(=O)N=C(SCC(=O)Nc2ccc(S(N)(=O)=O)cc2)NC1=O (stereo not drawn)	0.88	0.08
Cc1ccc(C(=O)C2OC(=O)C(C)(C)C(=O)C2(C)C)cc1 (stereo not drawn)	0.71	0.01
O=C(NCc1ccccc1)C(c1ccccc1F)N(C(=O)c1csnn1)C1CCCC1 (stereo not drawn)	0.54	2.1
O=C(Nc1cccc(F)c1)N1CCN(C(=O)c2ccco2)CC1	1.4	1.8
Cc1ccc(-c2ccnc3cc(C)nn23)cc1	0.42	-0.43
CCCCCCCCCCCNC(=O)c1ccoc1C	13*	-0.1*
O=C(CCN1C(=O)/C(=C\c2ccccc2)SC1=S)NNC(=O)c1cccnc1	0.03	3.7
COc1ccc(NC(=O)Nc2c(C)n(C)n(-c3ccccc3)c2=O)cc1	1.7	-0.62
COc1ccc(C(C(=O)NCC2CCCO2)N(C(=O)CNC(=O)c2ccco2)c2ccc(C)c(C)c2)cc1OC (stereo not drawn)	1.5	1.1
N#Cc1c(NC(=O)CSC2=NCCS2)sc2c1CCCC2	0.04	-0.87
C=C(C)CSc1nc(N)c2c3c(sc2n1)CCC3	0.72	-1.5
CCOc1ccc(CN2CCNC(=O)C2CC(=O)NCCCC2CCCC2)cc1 (stereo not drawn)	0.31	1.1

Entries of single compounds, looked up by structure. Values in the order: KCNQ2 pot	KCNQ2 pot baseline
Shown for `COc1ccc(C(C(=O)NCC2CCCO2)N(C(=O)CNC(=O)c2ccco2)c2ccc(C)c(C)c2)cc1OC` (stereo not drawn) = 1.5	1.1
Shown for `Cc1ccc(-c2ccnc3cc(C)nn23)cc1` = 0.42	-0.43
Shown for `COc1ccc(NC(=O)Nc2c(C)n(C)n(-c3ccccc3)c2=O)cc1` = 1.7	-0.62
Shown for `N#Cc1c(NC(=O)CSC2=NCCS2)sc2c1CCCC2` = 0.04	-0.87
Shown for `O=C(Nc1cccc(F)c1)N1CCN(C(=O)c2ccco2)CC1` = 1.4	1.8

New compounds follow.
SMILES	KCNQ2 pot	KCNQ2 pot baseline
Clc1ccc(-n2ncc3c(NCc4ccco4)ncnc32)cc1	1.4	-0.01
COC(=O)C1=C(N)n2c(s/c(=C\c3cccnc3)c2=O)=C(C(=O)OC)C1c1cccnc1 (stereo not drawn)	0.73	3.1
COc1ccc(C(=O)C[n+]2cc(-c3ccc(OC)cc3)n3c2CCCC3)cc1	2.1&0.09	-1.7&-0.12
CCOc1ccc2nc(NC(=S)NCc3ccccc3)sc2c1	1.2	0.83
Cc1cc(C)cc(NC(=O)c2cc(C)nc3ccccc23)c1	1.2	-0.19
Cc1cccc(OCC(=O)NC2CCCC2)c1	0.59	0.35
O=C(NC1=NCCS1)c1ccc2c(c1)C(=O)N(Cc1ccco1)C2=O	0.35	0.43
CCOC(=O)c1c(C)n(C)c2ccc(OCC(O)CN(CC)CC)cc12 (stereo not drawn)	0.29	1.3
COCc1cc(C)nc(SCc2nc3ccccc3c(=O)[nH]2)c1C#N	1.3	-0.91
COc1ccc(OC)c(NC(=O)CC(Cc2ccccc2OC)C(=O)O)c1 (stereo not drawn)	0.63	1.7
CCOc1ccc(C2/C(=C(\O)c3c(C)[nH]c(C(=O)OC)c3C)C(=O)C(=O)N2CCN(C)C)cc1 (stereo not drawn)	0.24	0.85
CCOc1ccc(-c2csc3nc[nH]c(=O)c23)cc1	4.2	-0.09
Clc1nc(NCc2cccnc2)nc(N2CCOCC2)n1	1.1	-0.39
Cc1cccc2cc(COC(=O)C(C)C)c(=O)[nH]c12	1.7	-1.4
Cc1ccc(-n2c(C)cc(/C=N/NC(=O)c3ccncc3)c2C)cc1	0.87	-0.04
Cc1cnc(C(=O)OCC(=O)NC(C)C)cn1	0.25	-1
CN1CCC(NC(=O)CCc2ccccc2)CC1	0.54	-0.12
Cc1cc(N2C(=O)C(=O)/C(=C(/O)c3ccc(F)cc3)C2c2ccc(Cl)cc2)no1 (stereo not drawn)	0.16	0.63
Cc1nc(SCC(=O)N2CC(C)OC(C)C2)nc(C)c1C (stereo not drawn)	0.09	-0.15
COc1ccc(Cl)cc1-c1nc(SCC(=O)NC2CC2)n[nH]1	0.64	0.01
COc1cccc(N2C(=O)CC(NNC(=O)c3cccs3)C2=O)c1 (stereo not drawn)	0.54	0
CC1Sc2ccc(S(=O)(=O)CCC(=O)NC3CCCCC3C)cc2NC1=O (stereo not drawn)	0.35	-0.58
Cc1ccc(/C=C/C(=O)Nc2nccs2)o1	2.7	-0.32
C[C@@H]1C=C(C(=O)N2CCN(Cc3ccc4c(c3)OCO4)CC2)O[C@H](OCCCCO)C1	0.28	-0.34
CC(Oc1cc(F)ccc1[N+](=O)[O-])C(=O)Nc1ccc(S(=O)(=O)N2CCCC2)cc1 (stereo not drawn)	0.46	1.2
Cc1ccccc1C(=O)Nc1ccccc1	0.21	-0.47
COCCNC(=O)c1onc(CCl)c1C(=O)OC	0.14	-0.06
O=C(CSc1nc2ccc([N+](=O)[O-])cc2[nH]1)NC1CCCCCC1	2.7	-1.2
O=C(CNCCO)N1CCc2ccccc21	0.33	0.2
O=C(O)C1=C[C@@H](c2ccc(Br)cc2)C[C@@H](OCCCCO)O1	1.1	0.47
CN(NC(=O)c1ccccc1Cl)c1ncc(C(F)(F)F)cc1Cl	0.85	-0.66
COc1ccc(-n2cnc3cc(C(=O)N4CCOCC4)ccc32)cc1	0.72	-0.02
CCOC(=O)c1cc(=O)c2ccc(OCC(=O)Nc3ccc(F)cc3)cc2o1	2.5	-1.9
CN(CC(=O)Nc1ccc(S(N)(=O)=O)cc1)c1ccccc1	0.81	-0.79
CCOC(=O)CN1N=C(c2ccc(Cl)cc2)CCC1=O	0.35	-1.7
COc1ccc(C(CCNCc2ccc(N(C)C)cc2)C(C)C)cc1 (stereo not drawn)	0.03	2.1
CC(CC(=O)O)n1nnc2ccccc21 (stereo not drawn)	1.3	0.26
C/C(CCc1ccccc1)=N\NC(=O)C(=O)Nc1cccc(Cl)c1	0.56	-1.6
Cc1ccc(Cc2cc(-c3ccc(C)cc3)n[nH]c2=O)cc1	0.39	1.8
COc1cc(NC(=O)CN(C)S(=O)(=O)c2ccc3c(c2)CC(C)N3C(C)=O)cc(OC)c1OC (stereo not drawn)	1.2	-0.16
CCCCCCCCNC(=O)c1cccnc1SCC(=O)Nc1ccccc1OC	1.3	-0.73
Cc1ccc(-n2nnnc2-c2ccccc2Br)cc1	1	-0.45
O=C(c1ccccc1)c1ccc2nc[nH]c2c1	1	-0.85
O=C1c2cccnc2C(O)N1C1CCCCC1 (stereo not drawn)	0.79	-0.29
COc1cc(NC(=O)C2CCCN2C(=O)C2CCC(C)CC2)cc(OC)c1OC (stereo not drawn)	0.59	1.3
